# Bfl-1 A1 inh: inhibitors of the anti-apoptotic protein A1, read as caspase activation. AID 2462. MEF A1-2A-BIM cells, Caspase-Glo 3/7 luminescence, 3 h; percent of clofoctol response, vehicle zero. actives 0.066% (n = 330,000). caspase activation, % (test concentration not listed);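 active = over half of replicate activation scores above 10%, or exactly half above 10 with the replicate mean above 10; inconclusive = replicate mean below 10 yet half the replicates above 10; inactive = over half of replicates below 10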;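 also: wells of about 30 µL received 50 nL stock; many hits fall short of the cut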
# T cruzi repl: blocks replication of Trypanosoma cruzi. T. cruzi beta-gal in NIH3T3, luminescence, 90 h. inhibition, % (concentration not given with the values). actives 1.4% (n = 300,000). AID 1885;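 active = mean inhibition across valid replicates above about 55%, limit read from the data; inconclusive = mean below that limit but half or more replicates reach it; inactive = mean below it, under half of replicates reach it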;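 also: signal also drops with host cell toxicity which is not excluded here; 0% = plate median of DMSO wells and 100% = zero luminescence signal; higher percent means less beta-gal luminescence so fewer parasites; stock transfer was 50 nL into about 50 µL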
# RanGTP-Impb inh: inhibitors of RanGTP-importin-beta interaction, primary screen, biochemical, FRET, CFP-Ran, YFP-importin-beta, homogeneous; AID 2216; inhibition, % (concentration not given with the values); actives 1.1% (n = 300,000); cell-free CFP-Ran/YFP-importin-beta FRET ratio;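 active = most replicates above 15%; inconclusive = exactly half above 15%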;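 also: 0% = DMSO wells and 100% = Ran loaded with GDP instead of GTP; wells of about 40 µL received 100 nL stock; the first replicate is given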
# AF4-AF9 inh: inhibitors of human MLL-AF4/AF9 interaction; actives 0.47% (n = 350,000); AlphaScreen, biotin-AF4 peptide binding to FLAG-AF9; P42568; AID 651704; inhibition, % at 10 µM;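 active = every replicate reaching a set inhibition limit, whatever the replicate mean, cut at about 25% in these data; inconclusive = mean inhibition reaches that limit but some replicates miss it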;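 also: 0% = plate neutral control median and 100% = total signal loss; the record names both 10 and 1 µM as test concentration; the first replicate is given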
# Target sequence (P42568 whole entry, looked up): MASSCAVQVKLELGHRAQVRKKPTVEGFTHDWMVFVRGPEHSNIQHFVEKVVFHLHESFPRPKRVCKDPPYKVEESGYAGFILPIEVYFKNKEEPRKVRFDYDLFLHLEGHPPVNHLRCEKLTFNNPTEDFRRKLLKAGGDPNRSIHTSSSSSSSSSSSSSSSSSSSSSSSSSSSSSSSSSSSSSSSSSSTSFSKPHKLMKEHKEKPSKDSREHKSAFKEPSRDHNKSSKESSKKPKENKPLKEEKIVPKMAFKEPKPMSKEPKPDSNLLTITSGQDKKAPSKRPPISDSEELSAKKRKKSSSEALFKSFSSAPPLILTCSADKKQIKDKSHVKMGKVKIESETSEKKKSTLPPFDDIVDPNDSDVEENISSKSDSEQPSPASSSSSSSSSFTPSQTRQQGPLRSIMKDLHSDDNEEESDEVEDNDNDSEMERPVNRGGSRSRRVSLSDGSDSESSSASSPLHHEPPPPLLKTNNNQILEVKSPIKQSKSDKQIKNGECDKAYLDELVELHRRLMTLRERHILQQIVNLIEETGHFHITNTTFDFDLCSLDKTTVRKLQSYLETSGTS
# Vif A3G: HIV-1 Vif–A3G interaction blockers – biochemical, TR-FRET, GST-Vif 1-94, biotin-A3G peptide, dose response retest, primary screen (AID 1117319); TR-FRET GST-Vif / biotin-A3G peptide binding; higher % means a stronger effect; test concentration not given here; strong numbers were not always called active; one-dose inhibition, %; IC50 in µM for titrated hits; actives 0.57% (n = 260,000);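 active = above the screen mean plus three standard deviations and confirmed in dose response; inconclusive = results disagree or hit not tested in dose response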;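 also: Vif residues 1-94 fused to GST binding biotinylated APOBEC3G peptide 110-148; 0% = full assay without inhibitor and 100% = GST in place of GST-Vif; retest series ran down from 100 µM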
# Calb FLC: affects C. albicans growth with fluconazole. C. albicans CaCi-2 (fluconazole-resistant clinical isolate) + fluconazole, Alamar Blue growth, 48 h. growth inhibition, % (test concentration not listed). actives 0.57% (n = 300,000);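 active = most replicates above 75%; inconclusive = exactly half above 75%; inactive = most below 75%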;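 also: all wells also contain fluconazole at 8 µg/ml as a sub-toxic cotreatment; 0% = median of DMSO wells and 100% = median of geldanamycin control wells; wells of about 8 µL received 7.5 nL stock; the first replicate is given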
# Ecoli rRNA inh: selective bacterial rRNA inhibition in E. coli; E. coli WT GFP vs humanized-ribosome RFP mutants, fluorescence, 24 h; hits give low values; DMSO median 0, no signal -100; GFP signal change (wild-type ribosome), % (concentration not given with the values); actives 1.6% (n = 350,000); AID 720706;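 active = significant combined selectivity score with lowered wild-type GFP, culture density cut under 30%, mutant RFP and density less affected; inactive = any of these conditions unmet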; also: one replicate is shown; some compounds called inactive have numbers as strong as hits
# Beta apoptosis: blocks beta cell apoptosis; INS-1E cytokine-induced death, ATP luminescence, 48 h; percent of positive-control rescue, neutral wells zero; protection from apoptosis, % (test concentration not listed); actives 0.8% (n = 300,000); AID 435005;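 active = all replicates at 75% or more, or half of them and the mean; inconclusive = half reach 75% but not the mean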;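 also: 0% = cytokine-treated negative control wells and 100% = positive control rescue; higher means more ATP so stronger rescue from cytokine killing; wells of about 40 µL received 100 nL stock; the first replicate is given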
# Ecoli rRNA inh OD600: second read-out of Ecoli rRNA inh, no call of its own (marks repeat the call); OD600 change, %; measured here: OD600 growth;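 optical density of the mix in the first replicate; 0 = DMSO median and -100 = no signal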
# Ecoli rRNA inh RFP: also measured in Ecoli rRNA inh; calls as there; RFP signal change, %; measured here: RFP humanized mutant strains;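 first replicate; 0 = DMSO median and -100 = no signal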
# * marks the source's active call; other numbers are inactive results; ? = inconclusive; . = not tested or not shown.
no.	canonical_smiles	AF4-AF9 inh	Ecoli rRNA inh	Vif A3G	Calb FLC	Beta apoptosis	T cruzi repl	RanGTP-Impb inh	Ecoli rRNA inh RFP	Ecoli rRNA inh OD600	Bfl-1 A1 inh
1	COc1ccc(-c2cc3c(=O)n(CC(=O)NCc4ccc(Cl)cc4)ncn3n2)cc1	1.7	1	.	-5	14	-28	-2.6	-3.5	10	-0.5
2	Cc1ccc(S(=O)(=O)NCCC(=O)Nc2ccc(Cl)c(Cl)c2)cc1	.	.	8%	-6	-15	2	-1.7	.	.	0.7
3	O=C(N/N=C/c1ccc(COc2ccc(Br)cc2)o1)c1ccco1	4.1	1	-4%	-12	4	9	-1.6	-2.4	2	-1.1
4	CC(C)c1ccc(NC(=O)CCNS(=O)(=O)c2cc(Br)cnc2N)cc1	4.9	2	-11%	1	-2	0	-1.8	4.6	-17	-1.3
5	CCOC(=O)c1cc(-c2ccccc2C)n(Cc2cc(C)no2)n1	-0.1	-12	.	.	8	.	.	-4.2	-13	-1.4
6	Cc1c(C)c(C)c(S(=O)(=O)N2CCSCC2)c(C)c1C	-1.9	15	-6%	-7	-4	24	4.3	-1.3	-1	-0.3
7	CC(=O)N1CCC(N(CCCOC(C)C)S(=O)(=O)c2ccc([N+](=O)[O-])cc2)CC1	0.5	13	-6%	-4	1	1	-0.6	3.6	20	0.6
8	CCOc1ccc2[nH]c(=O)c(CN(Cc3ccc(F)cc3)C(=O)N3CCCC3)cc2c1	.	.	8%	1	3	7	-5.7	.	.	0.4
9	CCS(=O)(=O)N1CCC(C(=O)N2CCc3ccccc3C2)CC1	.	.	2%	2	-8	-17	0.5	.	.	0.1
10	Cc1nnc(-c2cnn(C)c2N)n1CCCN1CCOCC1	0.1	18	-3%	-8	0	-3	-0.8	-0.1	-8	-1.6
11	O=C(NNc1ccccc1)/C(=C\c1cccnc1)NC(=O)c1ccccc1	3.3	7	-5%	-14	-6	6	-2.4	-2.7	8	-0.3
12	COc1ccc(C2CC(c3ccccc3)=NN2C(=O)COC(=O)c2cccnc2)cc1 (stereo not given)	-8.3	10	?	4	-3	2	12	11	6	-0.1
13	Cn1c(=O)n(CCc2ccccc2)c(=O)c2c1nc1n2CCCN1Cc1ccccc1	.	.	-2%	0	10	13	-4.5	.	.	-0.9
14	CC(NC(=O)c1ccccc1)c1ccc(F)cc1 (stereo not given)	-6.8	14	.	-10	.	-31	-3.7	-3.4	5	-0.2
15	NC(=O)c1ncc(C(F)(F)F)cc1Oc1ccc(F)cc1	.	.	10%	-2	0	3	-1.3	.	.	0.4
16	COc1ccccc1NC(=O)Cc1csc(NC(=S)Nc2ccccc2)n1	.	.	1%	-13	-3	-4	-0.2	.	.	0.2
17	CN(C)CCCn1c2c(c(SCC(=O)Nc3ccc4c(c3)OCCO4)nc1=O)CCC2	-0.8	1	.	8	-6	5	7.2	-3.3	11	-0.6
18	CCn1c(=O)c2ccccc2n(CC(=O)N2CCCc3ccccc32)c1=O	-1.2	7	.	-1	-3	5	10	-1.3	13	-0.3
19	COCCNC(=O)CSc1nc2ccccc2c(=O)n1-c1cccc(OC)c1	.	.	11%	3	.	-1	5.6	.	.	.
20	Cc1ccc(-c2nn(-c3cc(Cl)ccc3[N+](=O)[O-])c(=O)c3ccccc23)cc1C	.	.	?	5	22	50	1.6	.	.	0.6
21	CCN(/N=C/C=C/c1ccccc1)c1cc(=O)n(C)c(=O)[nH]1	1.6	7	.	35	-4	-1	27*	-1.0	6	-0.4
22	O=C1[C@H](CC[C@H](O)c2ccc(F)cc2)[C@@H](c2ccc(O)cc2)N1c1ccc(F)cc1	.	.	-6%	.	0	-5	?	.	.	0.9
23	CCCCCOC(=O)Cc1c(O)c2ccccc2n(C)c1=O	.	.	?	?	-10	-18	-4.5	.	.	0.4
24	CCCCc1ccc(-c2nc(NC(=O)C3C4CCC(O4)C3C(=O)O)sc2C)cc1 (stereo not given)	.	.	2%	5	-3	-5	-1.0	.	.	-1.3
25	COc1ccc(Cl)cc1NC(=O)COc1cccc(-n2cnnn2)c1	.	.	27%	1	4	-7	4.6	.	.	0.5

# 3 compounds from above, ordered by their value in AF4-AF9 inh, largest number first:
no.	compound	AF4-AF9 inh
11	O=C(NNc1ccccc1)/C(=C\c1cccnc1)NC(=O)c1ccccc1	3.3
6	Cc1c(C)c(C)c(S(=O)(=O)N2CCSCC2)c(C)c1C	-1.9
12	COc1ccc(C2CC(c3ccccc3)=NN2C(=O)COC(=O)c2cccnc2)cc1 (stereo not given)	-8.3

# Next part
no.	canonical_smiles	AF4-AF9 inh	Ecoli rRNA inh	Vif A3G	Calb FLC	Beta apoptosis	T cruzi repl	RanGTP-Impb inh	Ecoli rRNA inh RFP	Ecoli rRNA inh OD600	Bfl-1 A1 inh
26	COc1ccc([N+](=O)[O-])c(OC)c1C(=O)NC(=O)Nc1c(C)cccc1C	-8.3	-5	-4%	1	1	1	4.7	4.3	-6	-0.6
27	Cc1ccc(C(=O)Nc2ccc3c(c2)C(=O)N(CC2CCCO2)C3=O)cc1 (stereo not given)	-1.6	3	.	11	3	-6	7.7	2.3	6	0.0
28	O=C(CN1CCN(S(=O)(=O)c2ccccc2)CC1)N1CCc2ccccc21	1.1	-17	0%	.	-1	.	.	-3.2	-35	1.0
29	CCOC(=O)c1ccc(NC(=O)C2(c3ccc(OC)cc3)CCOCC2)cc1	.	.	-3%	0	5	10	-5.3	.	.	-0.2
30	O=C(Nc1cccc(N=Cc2cc(Br)cc(Br)c2O)c1)c1ccco1	.	.	16%	20	-3	-14	-18	.	.	0.3
31	CS(=O)(=O)N(CC(=O)NCc1ccccc1Cl)Cc1ccccc1	.	.	0%	0	5	-9	1.8	.	.	-0.4
32	CCC1(c2ccc(F)cc2)NC(=O)N(CC(=O)N2CCN(S(=O)(=O)c3ccc(C)cc3)CC2)C1=O (stereo not given)	-1.1	-1	-2%	3	-12	7	.	4.8	-2	2.3
33	Cn1c(N)c(C(=O)COC(=O)c2ccc(F)cc2Cl)c(=O)n(C)c1=O	-2.1	11	.	.	-6	.	.	-0.3	19	-0.5
34	COc1ccc(N2CCOCC2)c(NC(=O)c2ccc3c(c2)OCO3)c1	1.8	-4	.	0	-2	2	-2.9	0.4	-3	-0.3
35	O=C(O)c1ccc(-c2nc(-c3ccccc3Cl)cs2)cc1	-0.5	-37	-7%	19	-4	22	-1.5	-14	-48	-8.3
36	c1ccc2c(NC3CCCC3)nnc(NC3CCCC3)c2c1	.	.	1%	-11	5	30	0.2	.	.	0.5
37	O=C1C(Cl)=C(Nc2cccc(O)c2)C(=O)N1Cc1ccccc1	8.9	-58	12%	4	1	-60	-1.5	-20	-79	0.2
38	CCOC(=O)c1nnn(CC(=O)N2N=C(c3ccc(Cl)cc3)CC2c2ccc(OC)cc2)c1C(=O)OCC (stereo not given)	.	.	14%	-9	10	14	-0.2	.	.	0.0
39	O=C(CCCc1nc2ccccc2s1)Nc1nccs1	.	.	0%	-5	.	-7	-0.6	.	.	-1.3
40	CC(=O)N1Cc2[nH]c3ccccc3c2CC1C(=O)O (stereo not given)	-3.2	13	.	-3	.	-2	5.6	0.0	9	.
41	COc1ccccc1-c1cnn2c(NCCc3ccccc3)cc(C)nc12	-1.9	-6	-3%	12	-1	3	-0.2	-1.4	-8	-0.4
42	O=C(COc1ccc(Cl)cc1)N1CCCCCCC1	2.3	-7	.	13	-3	-5	4.1	0.4	-1	0.1
43	O=C(NCCn1ccc2ccccc21)c1cccc([N+](=O)[O-])c1	4.2	3	30%	17	1	-10	3.9	-4.8	22	-0.3
44	CCCc1cc(=O)oc2c(C)c(OCC(=O)N3CCC(C(N)=O)CC3)ccc12	-4.0	.	.	-1	1	8	-2.7	.	.	-0.8
45	CC(=O)NC(Cc1ccccc1C)C(=O)NC1CCN(C(=O)NCc2ccccc2)CC1 (stereo not given)	1.4	6	.	11	.	-6	1.8	-4.2	14	.
46	CC(=O)CSc1nc2ccc(Nc3nc(N4CCOCC4)nc(N4CCOCC4)n3)cc2s1	.	.	-1%	5	2	52	4.5	.	.	-0.5
47	CCOC(=O)CCN	-1.8	1	.	-9	-5	-13	5.2	-1.4	8	0.1
48	O=C(COc1ccc(C(=O)Nc2ccc(Cl)cc2)cc1)NCc1ccccc1	4.6	9	-5%	4	-6	-10	-0.4	0.8	19	-0.9
49	COc1cccc(Nc2nc(-c3cccnc3)cs2)c1	-6.6	-5	.	21	-6	29	-4.8	-3.0	-3	-5.9
50	COc1cc(CNc2ccc3c(c2)CCC3)cc(OC)c1O	.	.	8%	5	-11	-21	0.7	.	.	0.0
51	C=CCOc1ccc2ccccc2c1CNCCCN1CCOCC1	.	.	-8%	-12	-1	-13	-0.6	.	.	0.4
52	CCNC(=O)NC(=O)c1csc([N+](=O)[O-])c1	0.3	15	-16%	-2	-4	59*	-1.4	5.0	4	0.1
53	COc1ccc(CCN2CCCC(CN(C)C(=O)c3ccoc3C)C2)cc1 (stereo not given)	-2.0	15	.	3	-10	-2	0.9	3.7	18	0.1
54	O=C(Cn1c(NCCO)nc2ccccc21)NCCc1ccccc1	.	.	-9%	.	-1	8	2.3	.	.	-0.1
55	Nc1ccccc1C(O)(Cc1ccccc1)c1ccccc1 (stereo not given)	4.6	-16	-7%	-6	-9	2	3.0	-0.9	-16	-1.2
56	CC1(C(=O)N2CCC(CC3CC(c4cccc(Br)c4)=NO3)(C(=O)NCC3CCCCC3)CC2)CC1 (stereo not given)	-3.3	-10	.	42	-2	33	3.2	8.0	-20	-0.6
57	CCN(c1ccccc1)S(=O)(=O)c1cccc(C(=O)N2CCN(S(=O)(=O)c3ccccc3)CC2)c1	-0.2	8	.	10	3	17	-0.2	-0.1	5	-0.9
58	CC(=O)N1N=C(c2cccc(NS(=O)(=O)c3ccc(C)cc3)c2)CC1c1ccco1 (stereo not given)	-0.3	0	-6%	30	0	-23	2.6	14	-20	-0.7
59	O=c1oc2cc(OCc3ccc(F)cc3F)ccc2cc1-c1ccc2ccccc2n1	.	.	19%	5	6	-15	-0.2	.	.	0.1
60	CCc1cc2c(=O)[nH]c(Cc3ccc(Cl)cc3)nc2s1	.	.	?	-8	-5	-9	1.2	.	.	0.8
61	COc1ccc(NS(=O)(=O)c2ccc(OC)c(N(C)S(=O)(=O)c3ccc(Cl)cc3)c2)cc1	-23	-22	-7%	5	101*	6	-2.2	-5.0	-27	-1.2
62	CCCC1CCC(c2nc(-c3cccnc3)no2)CC1 (stereo not given)	.	.	1%	-14	6	-17	0.7	.	.	-0.8

# Some of the compounds tested; the hit share may differ from the screen's.
